# High-throughput results from PubChem.
# CDC25B-CDK2 inh: primary biochemical HTRF screen for blockers of M-phase inducer phosphatase 2 binding to CDK2/cyclin A. P30305+P24941. HTRF CDC25B-CDK2/CyclinA binding, anti-His/anti-Flag; stronger effect = higher value. z-score (no concentration beside the values). hit rate 0.72% among 94,000;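 note: score is relative to mean and SD of negative controls; strong numbers were not always called active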
# TAR Tat displ: TAR RNA-Tat peptide displacers, HIV-1, primary screen, biochemical, FRET, FAM/TAMRA-labeled Tat; HIV-1 TAR RNA, Tat peptide displacement FRET; stronger effect = higher value; z-score (test concentration not listed); hit rate 0.6% among 100,000; AID 1259389, 2018;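 note: score is relative to mean and SD of negative controls; some compounds called inactive have numbers as strong as hits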
# * = called active by the depositor; . = no result given.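 Rule for the calls: active = z-score from 3 up in half or more of its runs; inactive = the rest.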
SMILES,CDC25B-CDK2 inh,TAR Tat displ
CN(C)/C=C/C(=O)c1ccccc1,-1.4,.
COc1ccc(S(=O)(=O)N2CCCN(S(=O)(=O)c3ccc(OC)c(C)c3)CC2)cc1C,-0.01,.
CN(C)/N=C(\NO)c1c(F)cccc1Cl,-0.36,.
CCOc1ccc2nc(SCCc3ccccc3)[nH]c2c1,0.22,3.3
O=C(NCC1CCCO1)C(=O)NCC(c1ccco1)S(=O)(=O)c1ccc(Cl)cc1 (stereo not drawn),.,3.1
O=C1C=C(Cl)CC(c2ccc(C(F)(F)F)cc2)C1 (stereo not drawn),0.09,.
Cc1ccc(C2Nc3nonc3NC3=C2C(=O)CC(C)(C)C3)o1 (stereo not drawn),-0.78,-9
CCOC(=O)CNC(=O)CCc1nnc2ccc(N3CCCC3)nn12,.,0.05
CN(C)C(=O)Nc1ccc2snnc2c1,1.9,-0.37
COc1ccc2c(c1)C1=NN(C(C)=O)C(c3ccc(Br)cc3)C1CC2 (stereo not drawn),-0.86,-0.13
Cc1ccccc1-c1noc(-c2ccc[nH]c2=O)n1,-2.1,0.6
O=C(NCc1ccc2c(c1)CCO2)c1cccs1,-1.4,.
CCOc1ccc(CN(C2CC2)S(=O)(=O)c2ccc(S(=O)(=O)N(C)C)cc2)cc1,-1.7,3
CN(C)/C=C1\COc2ccc(Cl)cc2C1=O,-1.2,.
O=C(CSc1nc2c(c(=O)[nH]1)CCCC2)N(c1ccccc1)c1ccccc1,-1.7,0.8
Cc1[nH]cnc1C(=O)N/N=C/c1ccc([N+](=O)[O-])s1,0.96,.
CCOC(=O)c1[nH]nc2c1C(=O)N(c1ccc(Cl)cc1)C2=O,-2.9,.
NC1=NC(c2ccccc2)CC(=O)N1 (stereo not drawn),0.55,0.39
O=C(O)Cn1c(=O)[nH]c2cc3c(cc2c1=O)OCO3,-0.96,3.6
Cc1ccc(-n2ccc(=O)c(C(=O)Nc3nnc(C(C)C)s3)n2)cc1,-0.85,-0.16
Cc1nc(N2CCCCC2)c2c(C)c(C(=O)N3CCCC3)sc2n1,-2.9,.
COCCCN1C(=O)CCC1(C)C(=O)NC1CCCC1 (stereo not drawn),-1.8,-0.5
CCCCOC(=O)Nc1nc2ccc(S(C)(=O)=O)cc2s1,-0.24,1.4
Cc1ccc(S(=O)(=O)Nc2cc3[nH]c(=O)[nH]c3cc2C)c(C)c1,.,1.1
CCc1ccc(S(=O)(=O)c2cn(C)c3ccccc3c2=O)cc1,-1.7,-3.1
Cc1ccsc1CNc1nc2ccccc2n1C,-1.4,3.6
O=C1CSc2ccc(S(=O)(=O)N3CCC(C(=O)NCCc4cccs4)CC3)cc2N1,.,0.41
O=C(CSc1nc(-c2ccccc2F)nc2cc(=O)[nH]n12)Nc1cccc(F)c1,.,1.9
Cc1ncc(-c2ccc(S(=O)(=O)Nc3ccc(C)c(F)c3)cc2)o1,.,0.89
CCCN1CCN(c2ncc3c(n2)CCN(Cc2cccc(F)c2F)C3)CC1,.,0.39
Cc1nn(CC(=O)Nc2ccc3nc4n(c(=O)c3c2)CCCCC4)c(C)c1[N+](=O)[O-],-1.2,-0.81
Cc1ccccc1Cn1cccc1CNS(=O)(=O)c1ccc(C(C)(C)C)cc1,.,1.7
Cc1ccc(S(=O)(=O)N2CCN(c3cc(N4CCCC4)nc(C)n3)CC2)cc1,0.15,0.04
COc1cccc(NC(=O)C2C3C=CC4(O3)C2C(=O)N(C2CC2)C4C(=O)NC2CCCCC2)c1 (stereo not drawn),-1.8,2.5
O=c1oc2ccc(NS(=O)(=O)c3ccc(Cl)cc3)cc2s1,0.36,1.5
O=C(CSc1nnc(-c2ccc3c(c2)OCO3)n1-c1ccccc1)OCC(=O)c1ccccc1,0.6,1.1
Cc1nc(-c2ccncc2)nc(NCCNc2ccc(C(F)(F)F)cn2)c1Cl,-0.08,.
Cc1oc(S(=O)(=O)N2CCOCC2)cc1-c1nc(-c2ccc(C(F)(F)F)cc2)no1,-2.2,.
Cc1ccc2[nH]c(=S)n(Cc3ccc(C#N)cc3)c(=O)c2c1,-4.5,.
CCSc1nc2nc(C)c(CCO)c(=O)n2[nH]1,-1.6,-0.6

# In a second layout: entries from further up
# Each structure is followed by: CDC25B-CDK2 inh, TAR Tat displ
O=c1oc2ccc(NS(=O)(=O)c3ccc(Cl)cc3)cc2s1
 : 0.36, 1.5
Cc1ccc(S(=O)(=O)Nc2cc3[nH]c(=O)[nH]c3cc2C)c(C)c1
 : ., 1.1
Cc1ccc(S(=O)(=O)N2CCN(c3cc(N4CCCC4)nc(C)n3)CC2)cc1
 : 0.15, 0.04
CCc1ccc(S(=O)(=O)c2cn(C)c3ccccc3c2=O)cc1
 : -1.7, -3.1

# Next compounds.
SMILES,CDC25B-CDK2 inh,TAR Tat displ
Cc1c(C(=O)N2CCN(c3ccc(Cl)cc3)CC2)sc2nc3n(c(=O)c12)CCCC3,.,1
O=c1c(N2CCCCC2)csc2ccc(F)cc12,.,1.1
C=CCNC(=O)CCCCn1c(=O)[nH]c2ccccc2c1=O,.,0.96
CCc1nc(NCC2CCCO2)c(C#N)c2c1COC(C)(C)C2 (stereo not drawn),-1.7,.
COc1ccc(-c2noc(CN(C3CCCCC3)S(=O)(=O)c3ccc(OC)cc3)n2)cc1,-1.9,-1.3
CC1=C(c2cccc(Cl)c2)S(=O)(=O)N=C1N1CCc2ccccc21,-1.5,1.1
O=C1CC(c2ccc3c(c2)OCO3)C2=C(CC(c3ccccc3Cl)CC2=O)N1 (stereo not drawn),2.8,1.1
Cc1ccc(-c2noc(-c3nnn(-c4cccc(F)c4)c3C)n2)cc1,.,0.35
CCCn1c(=O)c2sccc2n2c(CCCC(=O)NCCc3c[nH]c4ccccc34)nnc12,.,-0.07
CC1=[N+]([O-])C(N2CCOCC2)C(O)(c2ccccc2)C1 (stereo not drawn),-0.61,.
COc1ccccc1CNCCSc1nnnn1C,-0.89,0.67
O=C(Nc1ccc(S(=O)(=O)Nc2cccc(C(F)(F)F)c2)cc1)c1cccs1,-0.06,.
CC(C)CCNC(=O)Cn1c(=O)oc2ccccc21,.,0.89
COc1cccc(N2C(=O)CC(c3cn(C)c4ccccc34)C2=O)c1 (stereo not drawn),-2.1,0.66
CC(C)Cc1nn2c(=O)cc(COC(=O)c3ccc(Br)cc3)nc2s1,.,-1.2
COC(=O)c1ccc2cc(C(=O)O)ccc2c1,-1.2,-0.06
CCOC(=O)C(Nc1ncnc2onc(-c3ccc(F)cc3)c12)C(C)C (stereo not drawn),.,-1.1
O=c1ccc(-c2ccc(S(=O)(=O)N3CCN(C4CCCC4)CC3)s2)n[nH]1,.,-0.84
Cc1cc(C)n(-c2cc(NCc3ccc(F)cc3)ncn2)n1,.,0.25
CCOc1nc(-c2ccc(C)cc2)ccc1-c1noc(COC)n1,1.2,-1.2
CCN1CCN(C(=O)CN2C(=O)COc3ccc(S(=O)(=O)N(CC)CC)cc32)CC1,0.29,.
CCOc1ccc(C2CC(c3ccc(OCc4ccccc4)cc3)n3nc(N)nc3N2)cc1 (stereo not drawn),-1.1,-0.17
Cc1ccc(C2C(=O)N(C3CCCC(C)C3C)CC(=O)N2Cc2ccccc2)cc1 (stereo not drawn),-0.31,.
Cn1cc(S(=O)(=O)N2CCOCC2)cc1C(=O)Nc1ccc(F)cc1,.,2.1
CN(C)CCCNC(=O)c1cc2ccccc2[nH]1,1.2,0.75
CCOC(=O)c1sc(NC(=O)CSc2nc3c(c(=O)[nH]2)CCCC3)nc1C,-0.88,1.9
CC1CCCC(NC(=O)C(C)n2ncn3cccc3c2=O)C1C (stereo not drawn),-1.8,11*
C[n+]1ccccc1/C=N/O,.,0.57
CN1NC(c2ccc(Cl)cc2)/C(=N\OC(=O)c2ccc(C(C)(C)C)s2)SC1=S (stereo not drawn),-2.6,.
O=C(C1COc2cc(S(=O)(=O)Nc3ccc(F)cc3)ccc2O1)N1CCOCC1 (stereo not drawn),.,0.28
CCOc1ccc(NC2=NC3(CCCC3)N=C(N)N2)cc1,-1.1,.
CC(=O)Oc1ccc(-c2cc(=O)c3c(OC(C)=O)cc(OC(C)=O)cc3o2)cc1,.,0.49
O=C(NC1CCCC1)c1ccc(N2C(=O)CCS2(=O)=O)cc1Cl,-1.6,0.45
COc1ccc(C2SCC(=O)N2c2nc3ccccc3s2)cc1 (stereo not drawn),-0.75,0.84
COc1ccc(OC)c(NC(C)=O)c1,-0.3,.
CC12CN(C(=O)c3ccco3)CC(C)(CN(C(=O)c3ccco3)C1)C2=O,-0.62,0.7
CCOC(=O)c1c(C)csc1NC(=O)/C(C#N)=C/c1ccc(C#N)cc1,-2.3,.
Cc1c(CNC(C)(C)C)c(C(=O)O)c(C)n1Cc1ccc(Cl)cc1,.,1.7
COc1ccc(-n2nnc(-c3nc(-c4ccc(Cl)cc4)no3)c2N)cc1Cl,.,-1
O=c1[nH]ncn2c1c(-c1ccccc1)c1cc([N+](=O)[O-])ccc12,0.47,.

# Complete entries as entered above.
# Profile of O=c1[nH]ncn2c1c(-c1ccccc1)c1cc([N+](=O)[O-])ccc12 → CDC25B-CDK2 inh: 0.47; TAR Tat displ: .
# Profile of CCOC(=O)c1[nH]nc2c1C(=O)N(c1ccc(Cl)cc1)C2=O → CDC25B-CDK2 inh: -2.9; TAR Tat displ: .

# Later entries.
SMILES,CDC25B-CDK2 inh,TAR Tat displ
Cc1nc(SCc2cccc(C(F)(F)F)c2)c2c(=O)n(C)c(=O)n(C)c2n1,-0.27,.
COc1cc(-c2nc3cnccn3c2Nc2ccccc2)ccc1O,-0.39,.
CCCc1nc(SCc2cc(=O)n3nc(CC)sc3n2)n[nH]1,.,0.36
CCOc1ccc(CNS(=O)(=O)c2cc(-c3onc(C)c3C)ccc2C)cc1OC,.,0.63
Cc1cc(NC(=O)CN2c3ccccc3NC3=C(C(=O)CCC3)C2c2cccs2)no1 (stereo not drawn),.,0.71
COc1ccc2oc(C(F)(F)C(F)F)cc(=O)c2c1,1.5,.
CC(C)CCNC(=O)c1ccc2c(=O)[nH]c3c(C(=O)NC4CCCC4)sc(=S)n3c2c1,.,8*
CC12CCC(C(=O)N(c3ccc(S(N)(=O)=O)cc3)C1=O)C2(C)C (stereo not drawn),0.35,.
O=C1CN(Cc2ccccc2F)S(=O)(=O)c2ccccc2N1Cc1ccccc1F,.,1.5
Cc1csc2c(N3CCN(C(=O)c4ccc(Cl)cc4)CC3)ncnc12,-0.58,.
O=C(c1cnn2c(C(F)(F)F)cc(-c3ccccc3)nc12)N1CCN(c2ncccn2)CC1,.,0.81
Cc1nn(C(C)C(=O)NCc2cccnc2)c(=O)c2cc3occc3n12 (stereo not drawn),-0.14,0.89
Cc1c(C(=O)NCCN(C)C2CCCCC2)sc2nc3n(c(=O)c12)CCCC3,.,1.8
Cc1nn(CCCC(=O)NCCN2CCOCC2)c(=O)c2cc3occc3n12,-1.7,0.05
O=C1CCSc2ccc(S(=O)(=O)NCc3ccco3)cc2N1,.,1.9
CCN(Cc1ccccc1)S(=O)(=O)c1cc(-c2ccc(=O)[nH]n2)ccc1Cl,.,1.7
Cc1ccc(NS(=O)(=O)c2cc(/C=C/c3onc(C)c3[N+](=O)[O-])ccc2C)cc1Cl,.,1.3
CC(=O)Nc1ccc(N=Nc2ccccc2)cc1,-2.5,.
O=c1cc(O)cc(/C=C/c2ccc(O)c(O)c2)o1,0.09,.
CN1CCc2c(sc(-n3cccc3)c2CNC(=O)NCc2ccccc2)C1,.,-7.5

# Structural class, the entries above containing a nitro group on carbon (four)
SMILES,CDC25B-CDK2 inh,TAR Tat displ
Cc1[nH]cnc1C(=O)N/N=C/c1ccc([N+](=O)[O-])s1,0.96,.
Cc1nn(CC(=O)Nc2ccc3nc4n(c(=O)c3c2)CCCCC4)c(C)c1[N+](=O)[O-],-1.2,-0.81
O=c1[nH]ncn2c1c(-c1ccccc1)c1cc([N+](=O)[O-])ccc12,0.47,.
Cc1ccc(NS(=O)(=O)c2cc(/C=C/c3onc(C)c3[N+](=O)[O-])ccc2C)cc1Cl,.,1.3

# Continued:
SMILES,CDC25B-CDK2 inh,TAR Tat displ
O=C(CN1C=NS(=O)(=O)c2ccccc21)Nc1ccc(Cl)cc1,.,1.2
CCn1cc(S(=O)(=O)c2ccc(C)cc2)c(=O)c2cc(F)c(N3CCCC3)cc21,.,0.06
O=C(Cn1c(=O)n(CC2CCCO2)c(=O)c2ccccc21)c1ccccc1 (stereo not drawn),-0.78,.
CCOCCCNc1ccc2nc3ccc(C)cc3c(=O)n2n1,1.5,-0.08
Cc1c(NC(=O)CSc2nc(-c3ccco3)cc(C(F)(F)F)n2)c(=O)n(-c2ccccc2)n1C,1.5,0.17
Cc1ccc(-n2nc3c(c2NC(=O)c2ccc(Br)o2)CS(=O)(=O)C3)cc1,-0.28,.
CN1CCN(C(CNC(=O)c2ccc3c(c2)OCO3)c2ccc3c(c2)OCO3)CC1 (stereo not drawn),.,1.1
O=[N+]([O-])c1ccc(Cl)c(S(=O)(=O)Nc2cccc3ccccc23)c1,-1.3,.
CCn1c(SCCOc2ccccc2F)nc2ccccc21,-1.2,0.81
CCOC(=O)Cc1csc(NC(=O)Nc2ccccc2)n1,0.52,.
Cc1nn(CC(=O)NC2CCCCC2)c(=O)c2cccn12,-0.71,0.6
CCS(=O)(=O)c1ncc(Cl)c(C(=O)N(Cc2ccc(Cl)cc2)C2CCS(=O)(=O)C2)n1 (stereo not drawn),-2.8,2.6
NS(=O)(=O)c1ccc(CCNC(=O)NC2(C(F)(F)F)Oc3ccccc3O2)cc1,-0.76,.
O=C(Nc1ccc2c(c1)OCCO2)Nc1nc(-c2ccccc2)cs1,-0.1,0.81
O=C(CCCCn1c(=O)[nH]c2ccccc2c1=O)N1CCN(c2ccccc2)CC1,.,1.6
CCOc1ccc(Nc2cnn(-c3nc4ccccc4s3)c(=O)c2Cl)cc1,0.59,-1.1
COC(=O)c1ccc(C2c3c(oc4ccc(F)cc4c3=O)C(=O)N2Cc2ccc3c(c2)OCO3)cc1 (stereo not drawn),-0.22,0.99
CC(=O)S[C@@H]1CC2=CC(=O)CC[C@]2(C)[C@H]2CC[C@@]3(C)[C@@H](CC[C@@]34CCC(=O)O4)C12 (stereo partly drawn),.,1.3
